RecA splice inh – blocks M. tuberculosis RecA intein splicing | AID 2221 | hit rate 0.75% among 290,000 | P9WHJ3 | inhibition, %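 (about 9 µM by stock and volumes)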 | cell-free RecA intein splicing, fluorescence; in the data active means inhibition above about 30%; inconclusive means no clear call, values can overlap the other calls;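 further: 0% = vehicle wells and 100% = reference inhibitor control wells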
Target sequence (P9WHJ3 whole entry, looked up, canonical isoform): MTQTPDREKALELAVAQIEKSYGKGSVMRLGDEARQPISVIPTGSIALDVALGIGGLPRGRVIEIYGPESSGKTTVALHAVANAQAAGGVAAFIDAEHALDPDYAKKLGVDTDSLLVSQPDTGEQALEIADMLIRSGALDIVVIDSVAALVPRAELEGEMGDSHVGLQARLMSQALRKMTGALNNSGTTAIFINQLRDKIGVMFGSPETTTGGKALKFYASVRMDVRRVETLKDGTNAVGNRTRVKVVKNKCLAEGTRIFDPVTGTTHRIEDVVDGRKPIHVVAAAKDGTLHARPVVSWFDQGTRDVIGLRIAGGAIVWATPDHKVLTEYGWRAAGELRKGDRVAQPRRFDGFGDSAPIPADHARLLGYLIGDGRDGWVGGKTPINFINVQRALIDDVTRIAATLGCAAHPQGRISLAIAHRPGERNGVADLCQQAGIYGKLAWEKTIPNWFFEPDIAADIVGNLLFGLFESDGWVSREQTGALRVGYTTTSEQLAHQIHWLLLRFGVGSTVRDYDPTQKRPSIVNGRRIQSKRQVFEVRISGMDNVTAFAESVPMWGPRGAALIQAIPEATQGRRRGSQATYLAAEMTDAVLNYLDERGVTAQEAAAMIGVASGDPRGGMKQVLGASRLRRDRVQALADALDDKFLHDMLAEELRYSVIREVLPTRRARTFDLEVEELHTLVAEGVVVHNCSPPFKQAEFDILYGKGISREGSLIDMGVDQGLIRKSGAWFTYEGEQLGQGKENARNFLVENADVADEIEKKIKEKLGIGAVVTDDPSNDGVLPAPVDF
Arbovirus anti – blocks arbovirus infection. inhibition, % at 10 µM. hit rate 0.37% among 200,000. arbovirus infection cell-based antiviral screen;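 active means inhibition from about 30%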;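 further: bluetongue infection of BSR cells; cell survival read as ATP light after 72 h; 0% = infected wells without compound and 100% = uninfected wells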
Mtb bLac sens – beta-lactam sensitization of Mtb H37Rv. M. tuberculosis H37Rv growth with meropenem, percent inhibition; hits of this screen are not shown here. inhibition, % at 25 µM. hit rate 0.27% among 330,000;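 active means about 74% or more and at least 40 points above the plate without the antibiotic, then above 30% in a dose series; inconclusive means first-round hits that could not be retested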;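 further: growth measured after seven days incubation then overnight dye step; 0% = bacteria only wells and 100% = bacteria with antibiotic; twin plates without the antibiotic show which effects depend on it; some results filed as inactive read as strong as hits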
Mtb growth – M. tuberculosis H37Rv growth inhibitors, H37Rv strain (AID 1626); hit rate 0.95% among 220,000; M. tuberculosis H37Rv growth inhibition; higher % means a stronger effect; inhibition, % at 10 µM; hits with a dose series show IC50 in µM;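 active means confirmed in a dose series; inconclusive means inhibition above 80% but not taken into the dose series; inactive means below 80% or under 30% at every dose of the series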;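 further: bacteria incubated seven days before Alamar blue readout; 0% = bacteria only wells and 100% = bacteria with antibiotic wells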
YopH inh – inhibitors of Yersinia enterocolitica YopH tyrosine phosphatase. hit rate 0.16% among 140,000. fluorescence Ex485/Em525. AID 898. inhibition, %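 (about 10 µM by stock and volumes)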;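 active means inhibition of 50% or more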;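 further: controls were vehicle for no effect and minimum signal wells for full effect; inactives centre near -20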
Arbovirus anti repeat – also measured in Arbovirus anti; calls as there; inhibition, %; measured here: 10K subset replicate screen; many hits read low in the repeat;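 first of two repeat runs on a subset; 0% = infected and 100% = uninfected wells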
* hit, by the source's call; ? = inconclusive; / = not tested or not shown.

SMILES | RecA splice inh | Arbovirus anti | Mtb bLac sens | Mtb growth | YopH inh | others
O=C(N/N=C/c1ccncc1)c1cc(C2CC2)nc2ccccc12 | -1.1 | / | -1 | / | /
CCOc1ccc(CCNC(=O)c2ccc(CNS(=O)(=O)c3ccccc3)cc2)cc1OCC | -5.4 | -12 | 2 | 0% | -19
O=C1CSC(c2ccc(Cl)cc2)N1Nc1nc(N2CCOCC2)nc(N2CCOCC2)n1 (stereo unspecified) | 3.3 | 2 | -4 | 0% | /
C=C(C)COc1ccc2c(C)c(CCC(=O)N3C[C@H]4C[C@@H](C3)c3cccc(=O)n3C4)c(=O)oc2c1 | -2.7 | / | -3 | / | /
COc1ccc(C(C(=O)Nc2ccc(C(C)C)cc2)N(C)C(=O)CNC(C)=O)cc1 (stereo unspecified) | / | 10 | 6 | -6% | -19
COc1ccc(-c2cn(Cc3ccc4c(c3)C(=O)c3ccccc3C4=O)nn2)cc1 | 0.2 | / | -1 | / | /
O=C1COc2ccc(NC(=O)c3ccccc3C(=O)O)cc2N1 | -1.1 | / | -1 | / | /
CC(CCc1ccco1)NC(=O)Cn1ncc2c1-c1ccccc1OC2 (stereo unspecified) | 2.3 | 4 | -3 | 4% | -30 | Arbovirus anti repeat=2
C/C(N)=N\S(=O)(=O)c1ccc(Cl)cc1 | -2.0 | 0 | 2 | -8% | -39
CC(C)NC(=O)CC(=O)N/N=C/c1ccc(F)cc1 | -2.1 | -1 | -6 | -8% | 19
COc1ccccc1N(CC(=O)Nc1cccnc1)S(=O)(=O)c1ccccc1 | 1.7 | 5 | 4 | 4% | 17
O/N=C1/CCc2nonc2/C1=N/O | 8.3 | -17 | 11 | 0% | -31
CCOC(=O)c1cnc2ccc(OCC)cc2c1N(C)Cc1ccccc1 | 1.7 | -3 | 3 | 21% | -15
CCOC(=O)c1cc(=O)n2nc(-c3ccc(C)cc3)nc2s1 | 9.2 | 4 | 14 | 2% | -1
CNC(=S)Nc1ccc2[nH]c(=O)[nH]c2c1 | -3.5 | -2 | 0 | -12% | /
CCOC(=O)CSc1nnc([C@H](C)NC(=O)OC(C)(C)C)o1 | 1.5 | -3 | -1 | 69% | 4
O=C(NCCCN1CCCC1=O)c1cc(S(=O)(=O)N2CCOCC2)ccc1Cl | -3.0 | / | 6 | / | /
COc1ccc(/C=N/Nc2nnc(-c3ncc[nH]3)c3ccccc23)cc1 | -4.4 | -1 | 49 | -3% | -103
Cc1cccc(C(=O)NC2=NCCS2)c1 | -1.6 | 2 | 9 | -8% | /
O=C(Cc1ccccc1)N1CCCC1c1ccccc1 (stereo unspecified) | 2.6 | 7 | 9 | -6% | -32
COc1ccc(C(=O)C2CCCN(Cc3c[nH]c4ccccc34)C2)c(OC)c1 (stereo unspecified) | 1.0 | -15 | 2 | 4% | /
COc1ccc(C(C)(C)C)cc1S(=O)(=O)n1ccnc1C | 0.3 | -1 | -4 | 2% | /
COc1ccc(-c2[nH]c(-c3ccccc3)nc2SCC(=O)Nc2nccs2)cc1 | / | -9 | 12 | 15% | -10
CCN(CC(=O)Nc1ccc(C)c(S(=O)(=O)N2CCOCC2)c1)Cc1ccccc1 | 0.5 | / | 2 | / | /
COc1cccc(CNC(C)(C)CO)c1OCc1ccc(Cl)cc1 | -3.0 | -4 | 4 | 7% | /
COc1cccc(OC)c1C(=O)Nc1ccccc1C(=O)N1CCCCCC1 | -0.6 | / | -14 | / | /
CC(C)N1C(=O)C2C(c3ccccc3O)NC(C)(C(=O)O)C2C1=O (stereo unspecified) | / | 8 | -4 | -6% | -44 | Arbovirus anti repeat=2
COc1cc(-c2noc(CCC(=O)NC3CCCC3)n2)cc(OC)c1OC | -0.6 | / | -3 | / | /
Cc1ccc(C(=O)Nc2ccc(N3CCN(C)CC3)cc2)cc1C | -2.9 | / | 0 | / | /
CCCC(C)NC(=O)Cc1ccc(Br)cc1 (stereo unspecified) | 9.9 | 0 | 9 | 6% | -21
CC1(C)c2ccccc2-n2c1cc1oc(=O)cc(O)c1c2=O | 0.2 | / | 5 | -1% | /
CCOC(=O)C(=O)Nc1ccc2c(c1)OCO2 | -3.8 | 2 | 1 | 4% | -23
O=C(C1CCN(S(=O)(=O)Cc2ccccc2)CC1)N1CCCc2ccccc21 | 0.2 | -2 | -12 | -7% | -31
O=C1C(c2ccncc2)=C(O)c2ccccc21 | 5.9 | 2 | -6 | 7% | -26
CC(C)c1ccc(CNC(=O)CSCC(=O)Nc2ccc3ccccc3c2)cc1 | -4.6 | -3 | 95 | 18µM* | -29
O=C(O)c1ccc(S(=O)(=O)N2CCN(c3ccccn3)CC2)cc1 | -3.7 | / | 1 | / | /

Of the compounds above, four have an NH in an aromatic ring.
SMILES | RecA splice inh | Arbovirus anti | Mtb bLac sens | Mtb growth | YopH inh | others
CNC(=S)Nc1ccc2[nH]c(=O)[nH]c2c1 | -3.5 | -2 | 0 | -12% | /
COc1ccc(/C=N/Nc2nnc(-c3ncc[nH]3)c3ccccc23)cc1 | -4.4 | -1 | 49 | -3% | -103
COc1ccc(C(=O)C2CCCN(Cc3c[nH]c4ccccc34)C2)c(OC)c1 (stereo unspecified) | 1.0 | -15 | 2 | 4% | /
COc1ccc(-c2[nH]c(-c3ccccc3)nc2SCC(=O)Nc2nccs2)cc1 | / | -9 | 12 | 15% | -10

The main list resumes, starting six compounds before the break.
SMILES | RecA splice inh | Arbovirus anti | Mtb bLac sens | Mtb growth | YopH inh | others
CC1(C)c2ccccc2-n2c1cc1oc(=O)cc(O)c1c2=O | 0.2 | / | 5 | -1% | /
CCOC(=O)C(=O)Nc1ccc2c(c1)OCO2 | -3.8 | 2 | 1 | 4% | -23
O=C(C1CCN(S(=O)(=O)Cc2ccccc2)CC1)N1CCCc2ccccc21 | 0.2 | -2 | -12 | -7% | -31
O=C1C(c2ccncc2)=C(O)c2ccccc21 | 5.9 | 2 | -6 | 7% | -26
CC(C)c1ccc(CNC(=O)CSCC(=O)Nc2ccc3ccccc3c2)cc1 | -4.6 | -3 | 95 | 18µM* | -29
O=C(O)c1ccc(S(=O)(=O)N2CCN(c3ccccn3)CC2)cc1 | -3.7 | / | 1 | / | /
Cc1cc2c(c(/C=C/C(=O)c3ccccc3)c1)OC1(C=C2)Oc2ccccc2C(=O)N1C (stereo unspecified) | 6.2 | -8 | 0 | -15% | /
Cc1nc(NC(=O)COC(=O)CCS(=O)(=O)c2ccccc2Cl)c(Cl)cc1Cl | 2.2 | -4 | -2 | -12% | -129
C[C@H](NC(=O)CCn1nnc2ccccc2c1=O)C(=O)O | -1.5 | / | -6 | -6% | /
CSCC(=O)NC1CCCc2c1cnn2-c1cc(F)cc(F)c1 (stereo unspecified) | -0.2 | / | -3 | / | /
Cc1ccc(C)c(NC(=O)c2cnn3ccccc23)c1 | 0.9 | -14 | 4 | -2% | -41
CCn1c(COc2ccccc2C)nnc1SCC(=O)OC | -1.4 | 2 | 22 | 4% | -28
Cc1ccc(S(=O)(=O)N2CCCC(C(=O)Nc3cccnc3)C2)cc1 (stereo unspecified) | 1.7 | 4 | -16 | -6% | 5
Cc1ccc(C(=O)N(Cc2sccc2C)C2CCS(=O)(=O)C2)cc1 (stereo unspecified) | -0.2 | / | 0 | / | /
O=C(CSc1ncn[nH]1)OCN1C(=O)c2ccccc2C1=O | -1.6 | 3 | -19 | -9% | -32
COc1ccc(C(CNC(=O)Cc2ccc3ccccc3c2)N(C)C)cc1 (stereo unspecified) | -3.8 | / | 6 | / | /
O=C(CSc1ncccn1)Nc1cc(Cl)ccc1[N+](=O)[O-] | 1.9 | 9 | -7 | 14% | /
CC(C(=O)Nc1cccc([N+](=O)[O-])c1)N(c1ccccc1)S(C)(=O)=O (stereo unspecified) | / | 3 | -4 | -1% | /
CCOC(=O)c1ccc(NC(=O)/C=C/c2cccs2)cc1 | 5.0 | 3 | 7 | 71µM* | /
CCOCCCNS(=O)(=O)c1cc2[nH]c3c(c2cc1C)C(=O)CC(C)(C)C3 | -0.2 | / | -1 | / | /
Cc1ccc(S(=O)(=O)CCc2nnc(NC(=O)c3cnccn3)s2)cc1 | / | -3 | -5 | -5% | -26
Cc1ccccc1C(=O)c1c[nH]c(C(=O)NCC2CCCO2)c1 (stereo unspecified) | -0.2 | 0 | 7 | -3% | -12
O=C(C1=COCCO1)N1CCN(C(c2ccccc2)c2ccccc2)CC1 | 5.5 | -12 | 23 | 16% | -36
COCCCNC(=O)CS(=O)(=O)Cc1nc(-c2cccc(OC)c2)oc1C | 0.7 | 7 | ? | -6% | -27
Cc1cc2ccccc2n2c(SCC(=O)N3CCc4ccccc4C3)nnc12 | 7.4 | -8 | 0 | 9% | -27
Cc1ccc(CNC(=O)Nc2ccc(F)cc2F)n1C | 0.4 | / | 4 | / | /
CC1=C(c2ccccc2)SC2=NCCN21 | -2.0 | / | 6 | / | /
Cc1onc(-c2ccccc2)c1C(=O)Nc1ccncc1 | 0.0 | 0 | 6 | -4% | -22
COc1ccc(-c2csc(NC3OC(=O)c4ccccc43)n2)cc1 (stereo unspecified) | -0.7 | / | 75 | 31% | /
COc1ccccc1C(=O)OCC(=O)Nc1cc(S(=O)(=O)N2CCOCC2)ccc1N1CCCC1 | 0.2 | 5 | 0 | 2% | /
CCCCC(=O)N(Cc1ccc(F)cc1)C1CCS(=O)(=O)C1 (stereo unspecified) | -4.6 | / | 5 | -10% | /
COc1ccc(OC)c(C2CC(=O)N3CN(c4cccc(Cl)c4C)CSC3=C2C#N)c1 (stereo unspecified) | 8.8 | 11 | -3 | -2% | 1 | Arbovirus anti repeat=1
O=C(O)c1ccc(NC(=O)c2cn(-c3ccccc3)nc2-c2ccc(Cl)cc2)cc1 | 3.0 | -2 | 16 | 7% | /
Cc1[nH]c(=O)[nH]c(=O)c1S(=O)(=O)N1CCCC(C(=O)NCc2ccccc2Cl)C1 (stereo unspecified) | 0.0 | -1 | 3 | -8% | -22
COc1ccc(CNC(=O)c2c(O)c3cccc4c3n(c2=O)CCC4)cc1 | -0.7 | -11 | / | 2% | -39
Cc1c(NC(=O)C(C)N2C(=O)C3C4C=CC(C4)C3C2=O)c(=O)n(-c2ccccc2)n1C (stereo unspecified) | -0.5 | 6 | 8 | 4% | / | Arbovirus anti repeat=3
CC1CCC(NC(=O)CCCCn2c(=O)[nH]c3ccsc3c2=O)CC1 (stereo unspecified) | 1.3 | / | 4 | / | /
COC(=O)c1c(C(=O)OC)c(-c2cccc(Cl)c2)n2c1CS(=O)C2 (stereo unspecified) | -0.5 | -3 | -4 | -9% | /
COc1cccc(/C=C2\N=C(c3c(-c4ccccc4)noc3C)OC2=O)c1OC | -25 | 9 | 4 | -5% | 0
O=C1Nc2ccccc2Nc2ncccc21 | -0.3 | 6 | -8 | / | -11
CN(C=C1C(=O)CC(C)(C)CC1=O)CCN1CCNCC1 | -1.1 | 2 | -3 | 0% | -16
NS(=O)(=O)c1ccc(CNC(=O)c2ccc(Cl)c([N+](=O)[O-])c2)cc1 | 1.5 | / | 1 | 7% | /
CN(C(=O)COC(=O)c1ccccc1SCC(=O)N1CCCC1)C1CCS(=O)(=O)C1 (stereo unspecified) | -0.9 | / | -10 | / | /
COc1ccc(C(=O)Nc2ccccc2C(N)=O)cc1 | / | 0 | ? | -3% | -23
COC(OC)C(C)NC(=O)NC(=O)c1ccccc1Cl (stereo unspecified) | 0.6 | / | -7 | -9% | /
O=C(CS(=O)CC(=O)Nc1cccnc1)Nc1ccc(F)cc1 (stereo unspecified) | 0.9 | / | -2 | / | /
Cc1nnc(NC(=O)CN2CCN(Cc3c(Cl)cccc3Cl)CC2)s1 | 0.7 | / | 2 | / | /
Cc1onc(-c2c(F)cccc2Cl)c1C(=O)N=C(N)N1CCCC1 | -3.7 | / | 3 | / | /
COc1cc2c(cc1OC)C1CC(=O)C(CC(C)C)CN1CC2 (stereo unspecified) | -2.7 | / | 5 | / | /
O=C(CSc1nnc(-c2ccccc2)o1)n1c2c(c3ccccc31)CCCC2 | -0.3 | 1 | / | -5% | 56*
Cc1ccc2nc(CCc3nc4ccc(C)cc4[nH]3)[nH]c2c1 | 6.9 | / | -1 | / | /
O=S(=O)(c1ccc(Oc2ccc(F)c(Cl)c2)nc1)N1CCOCC1 | 1.3 | / | -6 | / | /
Cc1sc2nc(CN3CCC(C)CC3)nc(Cl)c2c1C | 1.9 | -18 | 3 | 17% | -13
CCCc1cc(=O)[nH]c(SCc2nc3ccccc3s2)n1 | 1.7 | 18 | 9 | -2% | -36
COC(=O)c1ccc(Cn2nnc3c(=O)[nH]c(C4CCCN(S(=O)(=O)c5ccc(C)cc5)C4)nc32)cc1 (stereo unspecified) | 0.5 | / | -2 | / | /

Bioassay records: PubChem, several laboratories

An excerpt; the hit share may differ from the screen's.
